# NPYLR7 ag – agonists of mosquito NPYLR7 receptor, primary screen, cell-based, Aedes aegypti, calcium fluorescence, mosquito biting behavior; Aedes aegypti neuropeptide Y-like receptor 7 (NPYLR7); HEK293T NPYLR7/Galpha15, GCaMP6s calcium fluorescence; activation, % at 10 µM; 0.15% of 270,000 active; in the data active means activation above about 40%;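 further: 0% = vehicle and 100% = reference agonist at the receptor; some compounds past the cut are filed as inactive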
# NPYLR7 ag max-min – further read-out of NPYLR7 ag, marked with its call; activation, %; measured here: Max-Min RFU normalised activation; some inactives read as strong as hits;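 span of the calcium signal over five minutes; 0% = vehicle and 100% = native peptide agonist; compound fluorescence can raise it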
# Active calls of the source: *; & = joins results of further samples.
SMILES,NPYLR7 ag,NPYLR7 ag max-min
Cc1cc(O)c(C(c2ccccc2)N2CCC(C)CC2)c(=O)n1Cc1ccccn1 (stereo not drawn),10.6,10.6
Cc1ccc(CCNC(=O)c2cc(C3CC3)[nH]n2)o1,3.9,-2.3
O=C(NCc1ccco1)c1csc(COc2cccc(F)c2)n1,-4.1,-1.8
Cc1cnc(C)c(N2CCN(Cc3nc(-c4sccc4C)oc3C)CC2)n1,7.5&12.4,6.1&0.1
Cc1cccc(OCc2nc(CN(CCN(C)C)C(=O)c3ccc(Cl)cc3)cs2)c1C,16.7,19.3
c1nc(NC2CCCCC2)c2nc3n(c2n1)CCCCC3,7.1,5.4
COc1nn(C(C)C(=O)NNC(=S)NCc2ccc(Cl)cc2)cc1[N+](=O)[O-] (stereo not drawn),-0.4,-2.8
O=C(CSc1nc2c(c(=O)n1-c1ccc(OC(F)(F)F)cc1)SCC2)Nc1nccs1,-1.7,-7.0
O=C1CSC(c2ccc(NS(=O)(=O)c3ccc(Br)cc3)cc2)N1c1ccc(F)cc1 (stereo not drawn),13.4,16.5
CCC(CC)C(=O)N(C)c1c(C)nc2c(OCc3ccccc3OC)cccn12,7.8,-5.5
Cc1ccc(-n2c(SCc3nc(C(=O)N4CCN(c5ccc([N+](=O)[O-])cc5)CC4)cs3)nnc2-c2ccccc2Cl)cc1,0.3,7.6
COC(=O)C1CCN(C(=O)c2ccc(-c3cc(-c4ccc(Cl)cc4)[nH]n3)cc2)CC1,-2.7,6.5
Cc1nc(N2CCCC2)[nH]c(=O)c1CC(=O)NCCC12CC3CC(CC(C3)C1)C2,8.4,7.7
COc1ccc(Br)cc1C=CC(=O)N1CCC(O)(c2ccccc2)CC1,0.8,-4.2
Cc1ccc(C2(O)CCN(Cc3cc4c(cc3Cl)OCO4)CC2)nc1,15.5,12.9
CC(C)c1c(C(=O)NCc2ccccn2)c(C2CC2)nn1-c1ccc(F)cc1,7.3,16.7
Oc1cccc(CN2CCN(c3cncc(Cl)n3)CC2)c1,4.2,2.9
CCOc1coc(C(=O)Nc2cccc(C(C)=O)c2)cc1=O,14.6,5.6
C=C(C)Cn1c(=O)c2c(nc3n2CC(C)CN3c2ccccc2)n(C)c1=O (stereo not drawn),-0.2,-5.1
Cc1ncc(Cl)c(C(=O)NC2CCC(C)(C)c3ccccc32)n1 (stereo not drawn),-29.1,-26.0

# Filtered by structure, those above containing a nitro group on carbon.
SMILES,NPYLR7 ag,NPYLR7 ag max-min
COc1nn(C(C)C(=O)NNC(=S)NCc2ccc(Cl)cc2)cc1[N+](=O)[O-] (stereo not drawn),-0.4,-2.8
Cc1ccc(-n2c(SCc3nc(C(=O)N4CCN(c5ccc([N+](=O)[O-])cc5)CC4)cs3)nnc2-c2ccccc2Cl)cc1,0.3,7.6

# Next section.
SMILES,NPYLR7 ag,NPYLR7 ag max-min
O=C(c1cccc(OCC(F)(F)F)n1)N1CCc2[nH]ncc2C1,-1.3,-1.5
CCNc1ncc2nc(C(=O)O)c(=O)n(CC)c2n1,8.7,8.5
Cc1cccc(-c2n[nH]c(=S)o2)c1,-0.1,0.0
O=C(NCC1(c2cccc(C(F)(F)F)c2)CCCC1)Nc1nncs1,11.2,7.6
Cc1nc(CCNC(=O)Cc2c[nH]c3cc(F)ccc23)cs1,0.4,13.7
Cc1ccsc1/C=C1/CCn2c1nc1cc(C(=O)O)ccc1c2=O,14.1,10.7
CC(C)c1onc(C(=O)NC(C)(C)C)c1[N+](=O)[O-],8.6,11.2
COCCCn1c(C)cc(C(=O)Cn2nc(C)c(C)c(C#N)c2=O)c1C,7.1,12.7
Cc1cccc(-n2nc(-c3ccccc3Cl)cc2C(=O)N2CCN(c3ccccc3F)CC2)c1,9.4,3.7
CC(=O)N1CCN(C(=O)Nc2ccc(C34CC5CC(CC(C5)C3)C4)cc2Cl)CC1,13.9,11.2
COCCCN(Cc1csc(COc2c(OC)cccc2OC)n1)C(C)=O,24.7,26.8
CC(O)CN(CC(=O)N(C)C1(C#N)CCCCC1)c1ccccc1 (stereo not drawn),-1.3,-2.4
COc1c(F)cc(-c2nccn2CC(C)O)cc1Cl (stereo not drawn),-1.4,-7.8
CCCCn1c(=O)[nH]c2c(c1=O)CCC2,16.2,24.3
COc1cccc(CN2CCC2(C)C(=O)NCCc2c[nH]c3ccccc23)c1OC (stereo not drawn),8.6,3.1
O=C(CSc1nnc(-c2ccccc2)n1-c1ccccc1)N/N=C\c1cccs1,-4.0,-9.6
Cc1nc(Cn2nc(C3CCNCC3)n(Cc3ccccc3)c2=O)no1,2.1,0.5
COc1ccc(CN(C)C2CC(=O)N(c3c(C)cccc3C)C2=O)c(OC)c1 (stereo not drawn),-0.5,-3.3
CCC(=O)Nc1c(C)nc2scc(C)n2c1=O,14.7,2.3
CCC(C)c1ccc(NC(=O)CNc2ccc(F)c(C(=O)OC)c2)cc1 (stereo not drawn),8.7,4.6

# Part of the list above, with values under each structure:
# Screens in order – NPYLR7 ag	NPYLR7 ag max-min
- O=C(NCC1(c2cccc(C(F)(F)F)c2)CCCC1)Nc1nncs1
 : 11.2	7.6
- Cc1nc(CCNC(=O)Cc2c[nH]c3cc(F)ccc23)cs1
 : 0.4	13.7
- Cc1ccsc1/C=C1/CCn2c1nc1cc(C(=O)O)ccc1c2=O
 : 14.1	10.7
- CC(C)c1onc(C(=O)NC(C)(C)C)c1[N+](=O)[O-]
 : 8.6	11.2
- COCCCn1c(C)cc(C(=O)Cn2nc(C)c(C)c(C#N)c2=O)c1C
 : 7.1	12.7

# Continuation:
SMILES,NPYLR7 ag,NPYLR7 ag max-min
O=C1c2ccccc2C(=O)N1CSc1n[nH]c2nc3ccccc3n12,-0.2,8.0
O=C(c1cnccn1)N1CCN(Cc2ccc(-c3noc(-c4ccccc4)n3)cc2)CC1,5.4,12.4
COc1ccc2c(CN3CCCCC3c3ccccn3)[nH]nc2c1 (stereo not drawn),20.0,5.9
Cc1ccc(F)cc1CNC(=O)c1cc(Cn2ccc3ccccc32)[nH]n1,3.6,1.8
O=C(Cc1cc(-c2ccc(F)cc2F)on1)NCCCc1ccccc1,2.4,6.0
CC(=O)OC1=C(c2c(C)cc(C)cc2C)C(=O)c2ccccc21,-4.4,1.4
CCN(CC)S(=O)(=O)c1ccc(OC)c(N2CCN(C(=O)c3ccc(C#N)cc3)CC2)c1,9.0,6.7
CCc1cnc2c(c1SCC(=O)Nc1nc(C)cs1)c(=O)n(C)c(=O)n2C,-6.2,-1.1
CC(=O)C(C)n1c(=O)c2c(nc3n(-c4ccc(C)c(C)c4)c(C)c(C)n23)n(C)c1=O (stereo not drawn),4.1,0.9
Fc1ccc(Nc2nc(-c3ccco3)nc3ccccc23)cc1,-2.0,4.6
COc1ccc(OC)c(CN(Cc2cccnc2)CC2CCN(C3CCCC3)CC2)c1,-8.3,-10.6
CC1Oc2c(C(=O)NCc3ccccc3Cn3ccnc3)cccc2C1C (stereo not drawn),-1.9,-0.2
COc1ccc(C(NC(=O)c2c(O)cccc2O)c2ccncc2)cc1 (stereo not drawn),-0.9,1.8
C=CCn1c(-c2c(C)oc3ccccc23)csc1=NS(=O)(=O)c1ccccc1,-2.9,-6.7
COc1ccccc1N1CCN(C(=O)c2cccs2)CC1,4.2,8.8
CC(C)c1nc(CCNC(=O)C2CC2c2cccc(O)c2)cs1 (stereo not drawn),1.4,0.8
CCOC(=O)C1CCCN(C(=O)c2ccc(CSc3nc(COC)cc(N4CCN(C(C)=O)CC4)n3)o2)C1 (stereo not drawn),5.8,9.0
CCc1ccc(C(=O)N2CCN(c3cn[nH]c(=O)c3Cl)CC2)cc1,7.8,6.2
OC(CN1CCN(c2cc(C(F)(F)F)nc(-c3ccccn3)n2)CC1)C1CCCO1 (stereo not drawn),11.2,9.4
CCCc1cc(C(=O)NCc2cc(C)cc3c(C)c(C)[nH]c23)no1,3.5,3.7
CC1=C(C(=O)OCc2ccccc2)C(c2ccc(Br)s2)NC(=O)N1C (stereo not drawn),-3.7,-7.7
Cc1nc2sc(C)c(C)n2c(=O)c1NC(=O)c1ccc(-c2ccccc2)cc1,14.4,8.2
CSCC(CCO)Nc1nc(-c2ccccn2)nc2c1CCC2 (stereo not drawn),-7.0,-7.2
Cc1[nH]c(=O)[nH]c1C,0.0,7.5
O=c1c2cnc(N3CCCCC3)nc2ccn1-c1ccc(F)cc1,1.3,9.4
N#CC1C(=N)OC2=C(C(=O)CCC2)C1c1ccncc1 (stereo not drawn),-14.0,-19.9
CC1=C(C(=O)OCCc2ccccc2)C(c2ccc(C)s2)NC(=O)N1C (stereo not drawn),-3.1,-9.2
CCc1cnc(CN(C)C(=O)NC2CCN(c3ccccc3)C2)s1 (stereo not drawn),-21.6,-23.2
N#Cc1ccc(S(=O)(=O)N2CCN(C(=O)c3ccc4c(c3)OCO4)CC2)cc1,2.1,18.3
CCCNc1ccccc1C(=O)N1CCN(C(=O)c2ccccc2)CC1,-1.7,-3.9
O=C(CSc1ncn[nH]1)NCCSc1ccc(Cl)cc1,11.7,7.1
CC(=O)N1N=C(c2ccc(O)cc2)CC1c1ccc(OCc2ccccc2)cc1 (stereo not drawn),9.9,1.3
COc1ccc(OC)c(NC(=O)CCN2C(=O)c3ccccc3C2=O)c1,-11.2,-14.8
Cc1ccc(-n2[nH]c(C(C)C)c(-c3ccc(NC(=O)c4ccco4)cc3)c2=O)cc1,16.2,16.5
Cc1cccc(CN2CCN(Cc3cccc4cnccc34)CC2)c1,-0.9,-1.0
COc1ccc(-c2c[n+]3c(n2-c2ccc(C)cc2)CCCCC3)cc1,-10.8,-4.2
O=C(Nc1cccc(-c2cccc(-c3ccc4c(c3)OCCO4)n2)c1)c1c(F)cccc1F,0.1,6.4
CCN(CC)S(=O)(=O)N1CCN(Cc2cn3cc(Cl)ccc3n2)CC1,5.3,2.7
CCS(=O)(=O)Nc1ccc(N)cc1C,9.3,2.2
COc1cccc(-c2cnc(-c3ccc(CNC(=O)/C=C/c4ccccc4Cl)cc3)[nH]2)c1,-6.4,-14.7

# Two of these compounds in a different format:
> CC1=C(C(=O)OCc2ccccc2)C(c2ccc(Br)s2)NC(=O)N1C (stereo not drawn)
- NPYLR7 ag: -3.7
- NPYLR7 ag max-min: -7.7
> Cc1nc2sc(C)c(C)n2c(=O)c1NC(=O)c1ccc(-c2ccccc2)cc1
- NPYLR7 ag: 14.4
- NPYLR7 ag max-min: 8.2

# Additional entries
SMILES,NPYLR7 ag,NPYLR7 ag max-min
CCS(=O)(=O)NCc1nnc(SCc2ccc(F)cc2)n1-c1cc(Cl)ccc1C,19.0,15.1
CC(=NNc1nc(C)cc(C)n1)c1ccc(Cl)s1,-1.5,-3.3
CCCN(C(=O)C(=O)Nc1nncs1)C1CCCC1,0.1,1.2
CCc1[nH]n(-c2ccc(Cl)cc2)c(=O)c1C1=C([n+]2ccccc2)C(=O)N(C(C)C)C1=O,-1.0,0.9
CN(CCc1ccccc1)c1nc(-c2cccc(Cl)c2Cl)nc2ccccc12,-1.2,3.6
O=C(C1CC(=O)N(C2CCCC2)C1)N1CCN(c2ncccn2)CC1 (stereo not drawn),-6.5,-2.8
COCCn1c(SCC(=O)NCCc2ccc(F)cc2)nc2sc(-c3ccccc3)cc2c1=O,1.7,0.6
COc1ccccc1NC(=NS(=O)(=O)c1ccc(C)cc1)Nc1nc(C)cc(C)n1,-6.5,-12.2
Cc1cc(NC(=O)c2ccno2)n(-c2nc3ccccc3s2)n1,-14.7,-20.6
CC12CC3(C)CC(C)(C1)CC(C(=O)NC1=NCCS1)(C2)C3,9.7,8.3
CC(NC(=O)/C=C/c1ccc(Br)s1)C1CCCO1 (stereo not drawn),-5.1,-5.7
NC(=O)c1ccc(OCC(=O)NCc2ccco2)cc1,3.2,0.2

# Source: PubChem BioAssay

# Not all compounds are listed; count on the stated rates, not on these rows.
